High-throughput results as filed in PubChem BioAssay.
Calb FLC: affects C. albicans growth with fluconazole. 0.57% of 300,000 active. growth inhibition, % (no concentration beside the values). C. albicans CaCi-2 (fluconazole-resistant clinical isolate) + fluconazole, Alamar Blue growth, 48 h;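 active = most replicates above 75%; inconclusive = exactly half above 75%; inactive = most below 75%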;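 also: all wells also contain fluconazole at 8 µg/ml as a sub-toxic cotreatment; 0% = median of DMSO wells and 100% = median of geldanamycin control wells; wells of about 8 µL received 7.5 nL stock; the first replicate is given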
Vif TR-FRET: HIV-1 Vif–A3G interaction blockers – biochemical, TR-FRET, GST-Vif 1-94, biotin-A3G peptide, dose response retest, primary screen (AID 1117319) | TR-FRET GST-Vif / biotin-A3G peptide binding; higher % means a stronger effect; test concentration not given here; strong numbers were not always called active | inhibition, %; hits with a dose series show IC50 in µM | 0.57% of 260,000 active;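 active = above the screen mean plus three standard deviations and confirmed in dose response; inconclusive = results disagree or hit not tested in dose response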;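 also: Vif residues 1-94 fused to GST binding biotinylated APOBEC3G peptide 110-148; 0% = full assay without inhibitor and 100% = GST in place of GST-Vif; retest series ran down from 100 µM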
rRNA inh HTS: inhibits bacterial ribosomal RNA function over humanized ribosomes. E. coli WT GFP vs humanized-ribosome RFP mutants, fluorescence, 24 h; active compounds read low; DMSO median 0, no signal -100. GFP signal change (wild-type ribosome), % (no concentration beside the values). 1.6% of 350,000 active. AID 720706;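 active = significant combined selectivity score with lowered wild-type GFP, culture density cut under 30%, mutant RFP and density less affected; inactive = any of these conditions unmet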; also: one replicate is shown; some compounds called inactive have numbers as strong as hits
T cruzi repl: T. cruzi replication inhibition; T. cruzi beta-gal in NIH3T3, luminescence, 90 h; inhibition, % (no concentration beside the values); 1.4% of 300,000 active; AID 1885;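 active = mean inhibition across valid replicates above about 55%, limit read from the data; inconclusive = mean below that limit but half or more replicates reach it; inactive = mean below it, under half of replicates reach it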;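 also: signal also drops with host cell toxicity which is not excluded here; 0% = plate median of DMSO wells and 100% = zero luminescence signal; higher percent means less beta-gal luminescence so fewer parasites; stock transfer was 50 nL into about 50 µL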
RanGTP-Impb inh: inhibitors of RanGTP-importin-beta interaction, primary screen, biochemical, FRET, CFP-Ran, YFP-importin-beta, homogeneous. cell-free CFP-Ran/YFP-importin-beta FRET ratio. inhibition, % (test concentration not listed). 1.1% of 300,000 active;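 active = most replicates above 15%; inconclusive = exactly half above 15%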;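 also: 0% = DMSO wells and 100% = Ran loaded with GDP instead of GTP; wells of about 40 µL received 100 nL stock; the first replicate is given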
MLL AF4-AF9 inh: inhibitors of human MLL-AF4/AF9 interaction; P42568; AlphaScreen, biotin-AF4 peptide binding to FLAG-AF9; inhibition, % at 10 µM; 0.47% of 350,000 active;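 active = every replicate reaching a set inhibition limit, whatever the replicate mean, cut at about 25% in these data; inconclusive = mean inhibition reaches that limit but some replicates miss it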;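 also: 0% = plate neutral control median and 100% = total signal loss; the record names both 10 and 1 µM as test concentration; the first replicate is given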
Target sequence (P42568 whole entry, looked up): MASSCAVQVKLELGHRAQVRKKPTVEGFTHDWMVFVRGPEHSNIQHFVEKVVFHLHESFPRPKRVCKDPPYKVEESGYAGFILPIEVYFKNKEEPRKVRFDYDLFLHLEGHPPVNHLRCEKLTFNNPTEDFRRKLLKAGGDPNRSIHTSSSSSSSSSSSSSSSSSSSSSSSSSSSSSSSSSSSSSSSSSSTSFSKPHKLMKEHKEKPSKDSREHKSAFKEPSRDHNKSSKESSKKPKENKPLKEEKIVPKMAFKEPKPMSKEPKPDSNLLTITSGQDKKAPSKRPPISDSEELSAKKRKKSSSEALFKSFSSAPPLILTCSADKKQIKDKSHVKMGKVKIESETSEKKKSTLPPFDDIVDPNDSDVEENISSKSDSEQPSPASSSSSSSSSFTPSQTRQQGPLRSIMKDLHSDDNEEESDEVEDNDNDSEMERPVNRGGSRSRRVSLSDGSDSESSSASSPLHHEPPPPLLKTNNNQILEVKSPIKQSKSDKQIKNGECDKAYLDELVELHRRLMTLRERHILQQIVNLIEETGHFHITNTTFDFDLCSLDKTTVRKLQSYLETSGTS
Beta apoptosis: beta cell apoptosis inhibition; INS-1E cytokine-induced death, ATP luminescence, 48 h; percent of positive-control rescue, neutral wells zero; protection from apoptosis, % (test concentration not listed); 0.8% of 300,000 active; AID 435005;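 active = all replicates at 75% or more, or half of them and the mean; inconclusive = half reach 75% but not the mean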;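 also: 0% = cytokine-treated negative control wells and 100% = positive control rescue; higher means more ATP so stronger rescue from cytokine killing; wells of about 40 µL received 100 nL stock; the first replicate is given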
Bfl-1 A1 inh: inhibitors of the anti-apoptotic protein A1, read as caspase activation; MEF A1-2A-BIM cells, Caspase-Glo 3/7 luminescence, 3 h; percent of clofoctol response, vehicle zero; caspase activation, % (no concentration beside the values); 0.066% of 330,000 active; AID 2462;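 active = over half of replicate activation scores above 10%, or exactly half above 10 with the replicate mean above 10; inconclusive = replicate mean below 10 yet half the replicates above 10; inactive = over half of replicates below 10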;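 also: wells of about 30 µL received 50 nL stock; many hits fall short of the cut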
rRNA inh HTS OD600: second read-out of rRNA inh HTS, no call of its own (marks repeat the call); OD600 change, %; measured here: OD600 growth;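 optical density of the mix in the first replicate; 0 = DMSO median and -100 = no signal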
rRNA inh HTS RFP: further read-out of rRNA inh HTS, marked with its call; RFP signal change, %; measured here: RFP humanized mutant strains;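 first replicate; 0 = DMSO median and -100 = no signal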
The depositor's hits bear a star; u = inconclusive; x = not tested or not shown; & = joins results of further samples. Not all compounds are listed; rates above refer to the full screens.

SMILES	Calb FLC	Vif TR-FRET	rRNA inh HTS	rRNA inh HTS OD600	rRNA inh HTS RFP	T cruzi repl	RanGTP-Impb inh	MLL AF4-AF9 inh	Beta apoptosis	Bfl-1 A1 inh
C[C@H]1CCC[C@]2(O[C@H](CCO)C[C@@H](O)[C@@H]2O)O1	15	x	3	6	-1.4	-19	-2.2	-4.0	-1	-0.5
CC(C)(C)c1ccc(Cn2nnc3c(=O)[nH]c(C4CCCN(C(=O)c5cccs5)C4)nc32)cc1 (centres undefined)	12	x	-8	-28	7.6	32	3.6	1.0	-3	0.3
COc1ccc(C(=S)N2CCCCC2)cc1Br	20	6%	-11	-13	-5.3	-5	0.1	1.6	x	0.9
CS(=O)(=O)N(Cc1ccccc1Cl)c1ccc(C(=O)NCc2ccccn2)cc1	7	-5%	x	x	x	14	2.8	3.5	4	0.4
O=C(/C=C/c1cccnc1)c1ccc(O)cc1	4	-7%	0	0	-4.8	-8	6.7	-39	-14	-0.8
Cc1ccc(C(=O)c2c3ccc([N+](=O)[O-])cc3[n+]([O-])n2CCCC(N)=O)cc1	44	x	5	5	-1.4	29	1.4	x	12	0.7
Cc1ccc(-c2noc(-c3c(C)noc3C)n2)cc1	1	-5%	9	6	1.4	-14	-1.1	-1.2	0	-3.9
CCOC(=O)c1c(C)n(C)c2ccc(O)c(CN3CCC(C)CC3)c12	6	17%	x	x	x	40	1.9	x	16	-0.8
CC(=O)Nc1ccc(C(=O)N(C2=NC(C)CS2)c2ccc(Cl)cc2)cc1 (centres undefined)	-9	x	-3	-6	3.2	-15	-1.5	-7.7	-1	0.3
CCN(CC)c1ccc2c(-c3ccc(S(=O)(=O)O)cc3S(=O)(=O)[O-])c3ccc(=[N+](CC)CC)cc-3oc2c1	-75	-168%	58	30	29	1	4.8	x	47	-0.3
CN(CC(=O)Nc1ccc(F)c(F)c1)S(=O)(=O)c1cccs1	2	x	-9	-9	-0.1	-3	3.2	-22	0	-0.5
COc1ccc2c(C)cc(SCC#N)nc2c1	1	18%	-32	-53	-20	6	3.7	-0.6	-5	-1.2
CCC(=O)Nc1ccc(C(=O)CSc2nc(N)cc(N)n2)cc1	-5	-6%	-2	-3	1.6	-18	3.5	-2.5	-6	-0.3
O=S(=O)(c1cccc(C(F)(F)F)c1)c1ccc(O)cn1	10	x	-1	0	-1.5	x	3.3	1.2	x	3.1
CCc1ccc(Nc2nnc(SC(C)C(=O)NC3CC3)s2)cc1 (centres undefined)	x	x	0	7	-1.7	x	x	0.0	-2	-1.1
CC(=O)Nc1ccc(S(=O)(=O)C(C#N)c2nc3ccccc3nc2NCCO)cc1 (centres undefined)	-4	25%	8	1	4.4	-21	3.5	0.7	-1	0.6
O=C(NCC(c1ccco1)N1CCN(c2ccc(F)cc2)CC1)c1cccs1 (centres undefined)	27	-7%	-11	-16	-1.1	3	2.6	3.5	-3	0.6
O=C1c2ccccc2NC(c2ccc(-c3ccc(F)cc3)o2)N1O (centres undefined)	x	x	5	17	5.8	x	x	-18	-1	-0.7
CSc1nnc(C)c(/C=C/NOCc2cccc(F)c2)n1	1	14%	5	5	0.1	-13	4.2	4.5	-6	1.8
CCOc1ccc(-n2c(=O)[nH]cc(C(=O)N3CCc4ccccc43)c2=O)cc1	28	-7%	x	x	x	-11	u	x	x	1.4
O=C1CCC(c2ccccc2)=NN1Cc1c(F)cccc1Cl	-6	17%	3	5	-0.6	12	-2.0	-6.9	2	1.0
O=C(CCCOc1ccccc1)Nc1cccc(S(=O)(=O)N2CCOCC2)c1	x	1%	-11	-20	7.0	x	x	-5.5	-32	0.6
CCN(CC)Cc1c(C(=O)N/N=C/c2ccc(OCc3ccccc3C)cc2)nnn1-c1nonc1N	4	-2%	13	12	1.7	10	4.0	1.2	21	-0.6
COc1ccc(CN(Cc2cc3cc4c(cc3[nH]c2=O)OCO4)C(=O)NC2CCCCC2)cc1	2	19%&-11%	x	x	x	37	-3.2	x	4	-0.5
Cc1ccc(N(C)C(=O)c2cc(S(=O)(=O)N3CCCC3)cn2C)cc1	-4	x	3	-4	-1.2	-4	1.1	5.2	-3	-1.0
(more compounds)
SMILES	Calb FLC	Vif TR-FRET	rRNA inh HTS	rRNA inh HTS OD600	rRNA inh HTS RFP	T cruzi repl	RanGTP-Impb inh	MLL AF4-AF9 inh	Beta apoptosis	Bfl-1 A1 inh
O=C(Nc1ccccc1)/C(=C/c1ccc(F)cc1)NC(=O)c1ccco1	3	-5%	4	16	-1.2	29	u	-12	-4	1.0
COc1cccc(CN(CC(=O)NC2CCCCC2)C(=O)c2csnn2)c1	2	x	4	7	0.1	1	6.1	-0.3	3	0.6
CCOc1ccc2c(c1)c1nnc(SCC(=O)NC3CC3)nc1n2C	10	x	0	-3	-3.2	-12	1.7	-1.3	3	0.1
CCOC(=O)N1CCC(NC(=O)Cn2cc3c(n2)CCCC3)CC1	-3	-8%	15	12	0.2	-8	-3.2	-2.3	-7	-0.3
Nc1ccccc1C(=O)N(Cc1ccccc1)Cc1ccccc1	-5	u	x	x	x	10	-2.7	x	x	-0.1
O=C(c1cc(-c2ccccc2Cl)on1)N1CCN(C(=O)c2ccco2)CC1	16	3%	x	x	x	-4	2.2	x	-5	-0.5
COc1ccc(C(=O)n2cnc3ccccc32)cc1[N+](=O)[O-]	1	x	-27*	-12*	-9.3*	-14	2.1	-2.3	2	0.7
COc1ccccc1CNC(=O)CCCOc1cc(=O)n(C)c2ccccc12	u	2%	x	x	x	11	-25	x	1	-0.3
Cn1c(NCc2cc(Br)ccc2O)nc2ccccc21	u	2%	x	x	x	-12	2.7	x	-7	0.1
Nc1cc(Oc2ccc(F)cc2F)cc([N+](=O)[O-])c1	-9	18%	x	x	x	18	-1.2	1.0	-6	0.5
CC(C)C(C)NC(=O)Cn1cnc2c(oc3ccccc32)c1=O (centres undefined)	-1	-12%	10	10	2.0	-10	3.5	-0.7	0	-0.2
Cc1ccsc1C(=O)OCC(=O)NCc1ccc2c(c1)OCO2	x	-3%	x	x	x	-11	-1.3	x	4	-2.8
CCc1nnc(NC(=O)CSc2nnc(C3CC3)n2C)s1	0	x	12	10	3.2	-5	-1.9	-2.5	-10	0.0
CCC1CCCCN1C(=O)c1ccc(OC2CCN(C(=O)COC)CC2)cc1 (centres undefined)	-7	2%	8	4	2.5	0	1.9	-0.1	0	0.4
Cc1c(C(=O)NCC2CCCO2)oc2ccc(S(=O)(=O)N3CCCC3)cc12 (centres undefined)	-14	-1%	x	x	x	1	-3.9	x	-4	0.2
CCN(CC)C(=O)CSc1nc(N)c(C(=O)Nc2ccc(OC)cc2)s1	-8	-5%	-8	-9	-0.3	-3	0.8	-5.7	13	0.4
Cc1cccc2nc(-c3cccc(NC(=O)Cc4ccccc4)c3)cn12	12	-3%	-18	-41	0.1	13	0.6	-0.2	-10	-2.6
CCC(C)c1ccccc1N1CC(C(=O)N2CCN(C(=O)c3ccco3)CC2)CC1=O (centres undefined)	x	6%	2	3	-1.7	x	x	-0.8	-5	-0.4
CCOC(=O)c1cnc(-n2[nH]c(C)cc2=O)[nH]c1=O	4	u	8	12	4.8	-13	0.1	4.4	-6	-0.4
COc1ccc(OC)c(CN2C(=O)c3ccccc3C2C(=O)NCC2CCCO2)c1 (centres undefined)	-9	1%	3	1	-2.1	-13	3.3	5.7	5	-0.1
C=CC[C@@H](CC(=O)N[C@H](CO)Cc1ccccc1)C(=O)N[C@@H](C)COC(=O)[C@@H](CC=C)CC(=O)OC(C)(C)C	x	x	-14	-17	7.9	x	x	0.6	-4	1.5
Cc1cc(C)c(C)c(OCCCn2ccnc2)c1	-2	4%	x	x	x	u	2.4	x	-8	0.8
Cc1ccccc1C(=O)N1CCN(c2ccc(NC(=O)Cc3ccccc3)cc2)CC1	-3	x	4	3	2.2	-2	-0.8	-8.2	-7	0.4
CC(C)CCN1CCN(Cc2ccc(Sc3nncn3C)o2)CC1CCO (centres undefined)	-12	u	15	13	3.1	-4	-1.1	0.0	-9	0.9
Cc1nn(C)cc1C(C)NC(=O)c1cc(COc2ccc(F)c(F)c2)on1 (centres undefined)	0	x	4	1	-1.1	3	0.0	1.2	1	-0.3
Other compounds follow.
SMILES	Calb FLC	Vif TR-FRET	rRNA inh HTS	rRNA inh HTS OD600	rRNA inh HTS RFP	T cruzi repl	RanGTP-Impb inh	MLL AF4-AF9 inh	Beta apoptosis	Bfl-1 A1 inh
COc1ccc(C2=CCN3CCCCC3C2)c(-c2ccc(OC)c(OC)c2)c1 (centres undefined)	x	x	-1	-4	9.1	x	x	14	6	0.4
OCCC#Cc1ccc(CN2CCN(C3CCCCC3)C(CCO)C2)cc1 (centres undefined)	-35	32%	4	-4	4.9	23	2.5	-13	1	-0.3
CN(CC(=O)Nc1cccc(F)c1)C(=O)CCNC(=O)c1ccc(Br)cc1	44	4%	-10	-9	-0.5	18	-2.8	-0.6	-3	0.4
Cc1cccc(N(C(=O)CS(=O)CC(=O)Nc2ccc3c(c2)OCO3)C(C)C(=O)NC2CCCC2)c1C (centres undefined)	14	u	-3	0	-4.1	5	2.8	4.4	-4	0.2
COc1c(Cl)cnn(-c2cccc(C)c2)c1=O	10	-4%	16	18	3.4	28	-1.2	0.4	-3	-0.4
Cc1csc(NC(=O)Cc2nn(C)c(=O)c3ccccc23)n1	-4	3%	x	x	x	-33	u	x	16	0.8
O=C(COc1ccc(F)cc1)NCCCn1ccnc1	-6	x	6	12	3.9	-4	1.3	0.2	x	x
O=C(NCc1ccccc1Cl)c1ccc(S(=O)(=O)Nc2cccc(C(F)(F)F)c2)cc1	13	-2%	x	x	x	-4	1.2	x	x	0.3
NS(=O)(=O)c1ccc(O)c(NC(=O)c2ccc([N+](=O)[O-])o2)c1	-8	x	-2	1	-6.0	-1	5.6	x	-15	0.7

Of the compounds above, these contain a nitro group on carbon.
SMILES	Calb FLC	Vif TR-FRET	rRNA inh HTS	rRNA inh HTS OD600	rRNA inh HTS RFP	T cruzi repl	RanGTP-Impb inh	MLL AF4-AF9 inh	Beta apoptosis	Bfl-1 A1 inh
Cc1ccc(C(=O)c2c3ccc([N+](=O)[O-])cc3[n+]([O-])n2CCCC(N)=O)cc1	44	x	5	5	-1.4	29	1.4	x	12	0.7
COc1ccc(C(=O)n2cnc3ccccc32)cc1[N+](=O)[O-]	1	x	-27*	-12*	-9.3*	-14	2.1	-2.3	2	0.7
Nc1cc(Oc2ccc(F)cc2F)cc([N+](=O)[O-])c1	-9	18%	x	x	x	18	-1.2	1.0	-6	0.5
NS(=O)(=O)c1ccc(O)c(NC(=O)c2ccc([N+](=O)[O-])o2)c1	-8	x	-2	1	-6.0	-1	5.6	x	-15	0.7
